High-throughput results (PubChem BioAssay)
Mtb hypoxia inh = inhibitors of hypoxia-regulated fluorescent reporter in Mycobacterium tuberculosis. M. tuberculosis hypoxia-regulated fluorescent reporter, fluorescence. fluorescence inhibition, % (no concentration beside the values). 300,000 compounds, 0.1% hits. AID 1159583;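 active means 35 to 45% if threefold the growth effect, above 45% if 1.5-fold the growth effect; inactive means the rest, general growth blockers included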;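 further: wells of about 50 µL received 100 nL stock; 0% = vehicle wells and 100% = reference inhibitor wells; whole bacteria with a GFP reporter of the hypoxia response; strong numbers were not always called active; many hits fall short of the cut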
Sa ugtP lethal = growth inhibition of S. aureus ugtP deletion strain; AID 1259309; 330,000 compounds, 0.54% hits; S. aureus RN4220 ugtP deletion, OD600 growth, 16 h; some inactives read as strong as hits; growth inhibition, % (concentration not given with the values);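 active means z-score under -3 and OD600 up to 0.15 on both plates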;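 further: plate controls were untreated wells for no effect and antibiotic for full effect; wells of about 80 µL received 100 nL stock; the first replicate is given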
BJeLR viability = BJeLR cell viability loss | BJeLR (HRASV12) viability, CellTiter-Glo ATP luminescence, 48 h; reference of the scale not given here | inhibition, % (test concentration not listed) | 300,000 compounds, 0.17% hits | AID 1554;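 active means replicate mean above 50%; inconclusive means above 50% but judged a plate artefact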;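 further: 50 nL library stock added to about 25 µL; numbers are from one replicate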
PrP 5UTR inh = suppresses PrP 5' UTR mRNA reporter expression | AID 488862 | cell-based PrP 5' UTR mRNA reporter, plate reader | inhibition, % (no concentration beside the values) | 340,000 compounds, 0.35% hits;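 active means every replicate at 50% or more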;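 further: 0 = median of the neutral control wells; tested in H4 reporter cells; numbers are from one replicate; inactives centre near -14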
RN4220 kill = kills Staphylococcus aureus RN4220 | S. aureus RN4220 growth, OD600, 16 h | AID 1259311 | 330,000 compounds, 0.33% hits | inhibition, % (concentration not given with the values);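 active means z-score of -3 or lower and OD600 up to 0.18 on both plates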;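 further: plate controls were untreated cells for no effect and reference antibiotic for full effect; stock transfer was 100 nL into about 80 µL; one replicate is shown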
Bead autofluor = compound fluorescence in toxin protease inhibitor counterscreen; compound autofluorescence counterscreen, microsphere flow cytometry; stronger effect = higher value; fluorescence intensity (test concentration not listed); 360,000 compounds, 3.1% hits;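 active means at least 3 SD above the mean of all compounds, about 16000 in these data; inconclusive means too few beads counted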;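 further: 100 nL of 1 mM stock went into each well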
Mtb hypoxia inh growth = second read-out of Mtb hypoxia inh, no call of its own (marks repeat the call); growth inhibition, %; measured here: M. tuberculosis growth (absorbance);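 0% = vehicle and 100% = reference antibiotic; read after six days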
* hit, by the source's call; ? = inconclusive; · = no result given.

nr	Compound	Mtb hypoxia inh	Mtb hypoxia inh growth	Sa ugtP lethal	BJeLR viability	PrP 5UTR inh	RN4220 kill	Bead autofluor
1	COC(=O)c1ccc(CN2CCCC(CO)(Cc3ccc(F)cc3F)C2)cc1 (stereo unspecified)	-3.1	-5.5	5.0	-2.2	-13.1	-1.6	8356
2	NC(=O)C1CC2(CC(c3cccc(NC(=O)CC(c4ccccc4)c4ccccc4)c3)=NO2)CN1C(=O)CC(c1ccccc1)c1ccccc1 (stereo unspecified)	-5.5	2.2	-2.2	·	·	-4.6	·
3	CCOc1ccc(NC(=O)CSCc2cnn(-c3ccccc3)c2-n2cccc2)cc1	-2.2	-3.2	18.8	4.6	-17.4	-5.0	19959*
4	O=C(CNC(=O)c1cc(-c2ccccc2)nn1-c1ccccc1)Nc1ccccc1Br	-9.5	10.9	-0.6	·	3.8	-4.2	3855
5	COc1cc(/C=C2\SC(c3ccc(C)cc3)=NC2=O)ccc1O	-2.8	-17.6	-22.4	-4.0	-21.6	14.9	9269
6	O=C(/C=C1\SC(=O)N(CC(=O)Nc2ccc(Cl)cc2)C1=O)Nc1ccc(F)cc1	6.3	1.9	-13.0	-9.8	-12.7	-5.9	2174
7	CCCc1nc(NCc2ccc3c(c2)OCO3)c2nnn(Cc3ccccc3Cl)c2n1	-0.1	-5.7	-0.1	-1.9	-63.7	4.1	2586
8	N#Cc1nc(COc2ccccc2F)oc1N1CCCCCC1	18.5	0.4	15.1	·	-0.3	13.2	3677
9	COC(=O)c1sc2nc[nH]c(=O)c2c1C	1.6	8.0	-6.7	-5.3	-7.2	-5.0	2884
10	CC(CC(=O)Nc1cccnc1)=NNC(=O)C(C)Oc1ccc(Cl)cc1Cl (stereo unspecified)	13.9	4.5	12.4	·	·	2.4	·
11	Cc1ccc(C)c(C(=O)N(C)CC(=O)Nc2ccccc2C(F)(F)F)c1	16.7	-0.6	3.9	-0.5	-3.3	1.5	4196
12	CCC(C)C(C(=O)NCCCCCCCCCCC(=O)N1CCNCC1)n1cc(CCCCN=C(N)N)nn1 (stereo unspecified)	-2.8	16.1	4.1	·	·	2.5	·

Whole records as entered above. Order of values: Mtb hypoxia inh, Mtb hypoxia inh growth, Sa ugtP lethal, BJeLR viability, PrP 5UTR inh, RN4220 kill, Bead autofluor
Profile of CCOc1ccc(NC(=O)CSCc2cnn(-c3ccccc3)c2-n2cccc2)cc1 = -2.2, -3.2, 18.8, 4.6, -17.4, -5.0, 19959*
Profile of N#Cc1nc(COc2ccccc2F)oc1N1CCCCCC1 = 18.5, 0.4, 15.1, ·, -0.3, 13.2, 3677
Profile of CC(CC(=O)Nc1cccnc1)=NNC(=O)C(C)Oc1ccc(Cl)cc1Cl (stereo unspecified) = 13.9, 4.5, 12.4, ·, ·, 2.4, ·
Profile of NC(=O)C1CC2(CC(c3cccc(NC(=O)CC(c4ccccc4)c4ccccc4)c3)=NO2)CN1C(=O)CC(c1ccccc1)c1ccccc1 (stereo unspecified) = -5.5, 2.2, -2.2, ·, ·, -4.6, ·
Profile of COc1cc(/C=C2\SC(c3ccc(C)cc3)=NC2=O)ccc1O = -2.8, -17.6, -22.4, -4.0, -21.6, 14.9, 9269

More compounds:
nr	Compound	Mtb hypoxia inh	Mtb hypoxia inh growth	Sa ugtP lethal	BJeLR viability	PrP 5UTR inh	RN4220 kill	Bead autofluor
13	CCC(Oc1ccc(C)c(C)c1)C(=O)N1CCCN(C)CC1 (stereo unspecified)	8.7	0.0	-1.6	3.3	-9.3	-2.0	5659
14	CCCCN(C(=O)/C=C/c1ccco1)c1c(N)n(Cc2ccccc2)c(=O)[nH]c1=O	2.6	2.4	-0.6	·	-23.6	3.0	4329
15	CCC(COC(C)=O)Nc1nc2c([nH]1)c(=O)n(C)c(=O)n2C (stereo unspecified)	2.0	6.4	0.6	-11.0	-13.3	-0.3	5914
16	CC1CN(C(C)CO)C(=O)c2cccc(NC(=O)C3CCCCC3)c2OC1CN(C)C(=O)Nc1ccc2c(c1)OCO2 (stereo unspecified)	3.5	9.9	-2.1	·	·	3.2	·
17	O=C(O)/C(=C\c1ccccc1Cl)c1ccc(S(=O)(=O)N2CCCCC2)s1	3.1	-1.4	-4.1	6.2	-25.3	16.0	2451
18	O=C(c1ccc(S(=O)(=O)N2CCOCC2)cc1)N1CCN(c2cccc(Cl)c2)CC1	-5.6	4.2	6.0	-25.7	-3.6	2.4	24247*
19	COc1ccccc1C1C(C(=O)c2ccco2)=C(O)C(=O)N1c1cc(C)on1 (stereo unspecified)	10.1	7.9	2.2	-6.9	-7.5	5.5	5663
20	O=C(N/N=C/c1ccc(OC(=O)c2ccco2)cc1)c1ccccn1	·	·	·	-3.3	-62.7	·	4729
21	Cc1noc(C)c1C(=O)OCC(=O)Nc1ccccc1C(=O)NC(C)c1ccccc1 (stereo unspecified)	2.0	0.6	-10.3	0.6	-13.9	-0.2	3903
22	COc1ccc(C2=NCC(CSc3nnc(-c4ccc5c(c4)OCO5)o3)S2)cc1 (stereo unspecified)	13.4	14.4	1.2	0.0	-26.6	6.4	8700
23	O=C(NNC(=S)NCCCN1CCOCC1)c1ccncc1	10.7	3.7	8.4	-3.6	-10.7	5.8	4612
24	O=C(Nc1ccc(OC(F)(F)F)cc1)C1CC(=O)N(Cc2ccco2)C1 (stereo unspecified)	-2.9	11.3	-8.1	·	3.5	-9.1	3389
25	C#CCN(CC=C)C(=O)c1ccc2nc(C3CCCCC3)oc2c1	12.3	11.4	2.8	2.4	-17.0	-0.8	4821
26	CC[n+]1ccc(C(=O)NCc2ccccc2)cc1	6.6	8.0	2.3	1.4	-12.4	6.5	3404
27	CCCNC(=O)C1CNc2ccccc2O1 (stereo unspecified)	4.3	2.8	-0.9	-9.3	1.0	7.6	3185
28	CCOC(=O)c1c(C)n(Cc2ccccc2)c2ccc(OCC(O)Cn3nc(C)cc3C)cc12 (stereo unspecified)	·	·	-19.2	·	-15.0	-1.9	4831
29	CC(=NNC(=O)c1ccc(Br)cc1)c1ccccc1	8.7	3.3	-7.8	·	·	-11.3	·
30	C/C=C(\C)C(=O)N[C@@H](C)CN1C2=NC[C@H](C(C)C)N2C[C@H]1Cc1ccc(OC)cc1	·	·	·	-12.5	-9.3	·	4312
31	COc1ccc2[nH]cc(CCNS(=O)(=O)c3ccccc3)c2c1	-7.5	5.4	1.1	3.4	-28.6	5.9	3886
32	Cc1cccc(NC(=O)c2ccc(S(=O)(=O)N(C)CC3CCCO3)cc2)c1C (stereo unspecified)	4.9	8.4	13.2	-1.1	-2.9	4.6	5049
33	Cc1oc(-c2ccccc2)nc1CSc1nc2c(c(=O)[nH]1)CCC2	0.0	1.4	0.0	0.4	-6.2	7.0	4304
34	NC(=O)c1ccccc1NC(=S)NC(=O)CCc1ccccc1	3.2	6.1	5.4	12.0	-20.4	0.0	2472
35	O=C(COc1ccc(S(=O)(=O)N2CCCC2)cc1Cl)NC1CCCC1	3.9	5.5	7.7	0.3	-31.7	-0.1	20890*
36	CC1CCCN(CCCNC(=O)c2coc3nc4ccccc4nc23)C1 (stereo unspecified)	·	·	1.9	0.3	-19.2	10.3	4028
37	O=C(N/N=C/C(Cl)=C/c1ccccc1)c1ccccn1	·	·	·	-1.3	-70.7	·	3171
38	Cn1c(=O)c2c(nc(NCCc3ccccc3)n2CC(=O)NCCc2ccccc2)n(C)c1=O	10.7	8.9	-7.4	2.2	-14.1	-15.8	2861
39	CC(=NNc1ccc2nncn2n1)c1ccccn1	8.6	-15.9	-10.1	·	·	4.5	·
40	CN(Cc1ccccc1)S(=O)(=O)c1cccc2cccnc12	-6.2	15.1	0.9	-9.1	-14.0	4.6	24517*
41	Nc1ccc(N2CCOCC2)c(Cl)c1	-4.6	8.0	1.7	·	-55.3	-1.3	4345
42	Cc1onc(-c2c(Cl)cccc2Cl)c1C(=O)NNc1ccccc1	11.1	4.0	15.6	0.6	-19.7	6.7	6182
43	Cc1ccc(O)c(Cn2nnc3ccccc32)c1	15.1	2.7	4.1	4.9	-10.1	9.4	3987
44	O=C(COc1ccccc1)Nc1nnc(-c2ccco2)o1	2.8	4.2	4.2	-17.6	-11.0	4.5	2921
45	COc1ccc(CC(NC(C)=O)C(=O)NC2CCN(c3c(Cc4ccccc4)c(C)nc4ncnn34)CC2)cc1OC (stereo unspecified)	-3.1	7.4	13.4	9.8	·	1.8	·
46	CN(C)c1ccc(/C=C(\NC(=O)c2ccccc2)C(=O)NCc2cccnc2)cc1	1.8	6.6	9.1	3.5	-15.0	2.0	3997
47	CCOC(=O)c1c(C)[nH]c(C(=O)COC(=O)C2CC2)c1C	2.0	4.9	0.7	·	-11.3	-1.4	?
48	Cc1ccc(Cl)cc1NC1=NC(=S)N(C(C)C)C12CCCCC2	4.2	6.9	-7.5	12.6	-1.2	3.1	3502

(49) Cc1ccc2[nH]c(=O)c(CC(=O)O)c(-c3ccccc3)c2c1
(50) CCc1ccc(Oc2cc(C)nc(N)n2)cc1
(51) OC12ONC(c3ccccn3)C1N1CCC2CC1 (stereo unspecified)
(52) CCn1c(=O)cc(SCC(=O)NCc2cccnc2)c2ccccc21
(53) CC1(C)OC(=O)C(=NNc2ccccc2)C(=O)O1
(54) CCOCC(=O)Nc1cc(C(=O)OC)cc(C(=O)OC)c1
(55) CCCC12CN3CCN(CC(C3)C1=NNC(=O)c1ccc(F)cc1)C2
(56) Cc1ccc(-c2csc3ncnc(-n4nnc5ccccc54)c23)cc1C
(57) FC(F)(F)c1cccc(NC(=S)N(CCCN2CCCC2)Cc2cccn2Cc2ccc(Cl)cc2)c1
(58) COc1ccc(N=C2SCC(=O)N2c2ccc(OC)cc2)cc1
assay / entry	49	50	51	52	53	54	55	56	57	58
Mtb hypoxia inh	1.9	16.4	3.9	4.6	·	7.5	4.7	·	7.2	0.4
Mtb hypoxia inh growth	-1.0	0.3	3.2	1.9	·	12.4	-4.2	·	-1.2	-6.7
Sa ugtP lethal	-2.9	11.6	-0.3	3.4	·	5.6	13.1	·	0.7	2.7
BJeLR viability	-0.9	-10.6	1.9	14.0	-4.0	-6.6	·	-2.3	3.0	-5.7
PrP 5UTR inh	-7.8	-96.4	-5.1	-10.7	-34.6	-19.4	·	-15.6	-7.9	-23.0
RN4220 kill	0.1	4.7	1.1	1.4	·	2.7	7.8	·	19.8	2.3
Bead autofluor	·	4300	1963	9751	2107	2291	·	1976	3867	4235

(59) COC(=O)c1ccc(SCC(=O)NC2CCCC2)c([N+](=O)[O-])c1
(60) CCOc1ccc(NC(=O)Nc2ccc3nccnc3c2)cc1
(61) C=CCOc1ccccc1CN1CCC(n2nccc2NC(=O)c2ccccc2)CC1
(62) Cc1ccc(-c2nnc(SCC(=O)NCC3CCCO3)n2C)cc1 (stereo unspecified)
(63) NCCCCC(NC(CCc1ccccc1)C(=O)O)C(=O)N1CCCC1C(=O)O (stereo unspecified)
(64) COc1ccc(N2CCN(C(=O)CNS(=O)(=O)c3ccc(C)cc3)CC2)cc1
(65) Cn1c(SCC(=O)N2CCOCC2)nc(O)cc1=O
(66) CC(C)(C)n1nc(Cc2cccc3ccccc23)c(C#N)c1N
(67) Cc1ccc(C)c(S(=O)(=O)NCC(=O)Nc2sc3c(c2C(N)=O)CCC(C)C3)c1 (stereo unspecified)
(68) COCCn1nnnc1C(C(C)C)N(Cc1cccnc1)Cc1cc2cc(OC)ccc2[nH]c1=O (stereo unspecified)
assay / entry	59	60	61	62	63	64	65	66	67	68
Mtb hypoxia inh	-7.4	·	-2.0	-3.6	-1.5	7.8	8.1	0.8	·	·
Mtb hypoxia inh growth	4.7	·	-10.2	15.2	-1.5	7.5	14.0	9.0	·	·
Sa ugtP lethal	-11.8	8.2	0.3	-5.9	2.0	4.5	12.3	6.9	1.1	0.5
BJeLR viability	-0.8	6.3	-0.4	-1.1	·	-4.4	-3.8	-4.8	-0.7	2.5
PrP 5UTR inh	-48.9	-24.6	-27.0	-25.0	·	-9.2	-27.9	-4.1	-20.5	6.1
RN4220 kill	-5.1	-5.3	-1.0	-3.4	1.1	2.6	6.4	5.8	-0.5	7.5
Bead autofluor	2339	2577	5212	3471	·	4373	13380	3780	2585	3620
